HPGD inh: qHTS Assay for Inhibitors of HPGD (15-Hydroxyprostaglandin Dehydrogenase); 15-hydroxyprostaglandin dehydrogenase [NAD(+)] (Homo sapiens), P15428; purified HPGD, NADH fluorescence kinetic, PGE2 substrate; Potency, µM, inactives show at the top dose activity change, negative = inhibition, actives largely listed as inhibitors; hit rate 4.3% among 150,000; AID 894, 2007; active = well fitted inhibition curve with a large enough effect (not every such curve was filed as active); inconclusive = small, poorly fitted or top-dose-only effect, or another doubt; inactive = no such curve, though single readings can be large or run the other way;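 also: top concentration of the series not given in the record; plate controls included wells without enzyme; inactives centre near -10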
Target sequence (P15428 whole entry, looked up): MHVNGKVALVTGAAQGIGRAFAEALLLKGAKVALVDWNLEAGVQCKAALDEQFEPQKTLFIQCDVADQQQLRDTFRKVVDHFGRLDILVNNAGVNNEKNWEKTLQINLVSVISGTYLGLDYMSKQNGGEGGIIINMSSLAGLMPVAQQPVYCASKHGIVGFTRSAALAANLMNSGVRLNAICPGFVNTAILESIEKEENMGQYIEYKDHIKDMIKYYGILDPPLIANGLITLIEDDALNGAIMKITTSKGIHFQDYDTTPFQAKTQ
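NADH formation kinetics: reaction with 30 uM PGE2 and 1 mM NAD+ (final), 20 nM enzyme, Tris-HCl pH 8 with Tween 20, after 15 min compound preincubation at room temperature. Fluorescence change, last versus first of five reads.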
* marks the source's active call; other numbers are inactive results; ? = inconclusive; & = joins results of further samples. % is scaled to controls: 0 for no effect and ±100 for the full control effect; potency is read from the fitted curve at half-maximal effect. These rows are one share of the data. The share of hits here may be higher or lower than overall.

#	structure	HPGD inh
1	C=CCc1cccc(/C=N/n2c(C)nnc2C)c1O	-13.0%
2	COc1ccc(CCNC(=O)CSc2nc(-c3ccc(OC)c(OC)c3)ccc2C#N)cc1	?
3	CCOC(=O)c1ccc2[nH]c3c(c2c1)CCCCC3=O	-13.1%
4	Cc1nc(SCC(=O)c2ccccc2)c([N+](=O)[O-])[nH]1	-5.3%
5	CC(SCc1ccccc1)C(=O)Nc1ccc2c(c1)OCO2 (centres undefined)	-7.3%
6	O=C(COC(=O)c1ccc(CSc2ccc(Cl)cc2)cc1)Nc1ccccc1	-12.3%
7	CCOc1ccc(Br)cc1S(=O)(=O)N1CC(C)OC(C)C1 (centres undefined)	1.5%
8	CCn1c(SCC(=O)c2cc(C)n(-c3ccc(C(=O)OC)cc3)c2C)nnc1-c1cccnc1	0.2%
9	Cc1ccc(C)c(NC(=S)NNC(=O)c2csc3c2CCCC3)c1	-10.8%
10	C[C@@H]1NC(=O)c2cc([N+](=O)[O-])cc(I)c2NCCCC[C@@H](C(N)=O)NC(=O)[C@H](CCC(=O)O)NC1=O	-17.7%
11	COC(=O)CCCNS(=O)(=O)c1ccc2ccccc2c1	0.2%
12	Cn1cnnc1SCC(=O)c1cc2ccccc2oc1=O	?
13	CCOc1ccccc1NC(=O)Cn1nnc(C(=O)NCc2ccco2)c1N	-11.2%
14	COc1cc(C(c2nnnn2C2CCCC2)N2CCc3ccccc3C2)ccc1O (centres undefined)	?
15	O=C(Nc1cccc(-c2nnn(CC(=O)N3CCc4ccccc4C3)n2)c1)C1CCC1	-19.0%
16	O=C(CCc1ccccc1)NNC(=S)NC(=O)c1ccc(Cl)cc1	-27.0%
17	S=C(NCc1ccc(Cl)c(Cl)c1)Nc1ccc2c(c1)OCO2	-15.1%
18	O=C(OC(C(=O)NC1CCCC1)c1ccc(F)cc1)c1ccno1 (centres undefined)	-11.9%
19	O=C(C1=C(Nc2ccccc2)c2ccccc2S(=O)(=O)N1)c1ccccc1	-23.8%
20	CC(C)NC(=O)Cc1ccc(Br)cc1	-11.1%
21	COc1cccc(NC(=O)c2ncn[nH]2)c1	-10.4%
22	O=C(NCCN1CCc2ccccc2C1)C1CCN(S(=O)(=O)N2CCC3(CC2)OCCO3)CC1	-9.4%
23	CSc1nc(N(C)NC(=O)c2ccc(Cl)cc2)c2ccccc2n1	4.1%
24	Cc1ccc(NC(=O)c2ocnc2C)cc1Cl	-16.7%
25	COc1ccccc1NC(=O)CSc1nc2ncccc2[nH]1	-7.1%
26	O=C(c1ccc(CS(=O)(=O)c2ccc(Br)cc2)o1)N1CCOCC1	-10.5%
27	Cc1cc(C)n(-c2ccc(C(=O)OCC(=O)Nc3cc(Cl)ccc3[N+](=O)[O-])cc2)n1	-22.3%
28	Cc1csc(NC(=O)CSc2nc3sc(C)c(C)c3c(=O)[nH]2)n1	12.6µM*
29	Cc1ccc(Nc2nc3ccccc3s2)cc1	-7.6%
30	Clc1cccc(Cl)c1C(Nc1nncs1)Nc1nncs1	-3.8%
31	Cn1cc(CNC(=O)c2cc(-c3ccccc3)nc3ccc(Br)cc23)cn1	-16.9%
32	CCN(CC)CCNC(=O)C1CCC(=O)N(c2ccc(OC)cc2)C1c1ccc(F)cc1 (centres undefined)	3.9%
33	CCOC(=O)c1c(-c2ccc(C)cc2)csc1NC(=O)/C(C#N)=C/c1ccc(O)c(OC)c1	-16.0%
34	CCn1c(COc2ccc(=O)n(-c3ccccc3)n2)nnc1SCc1ccccc1C	-3.5%
35	C=CCn1c(SCC(=O)O)nnc1-c1cccs1	-22.3%
36	CNC(=O)c1c(NC(=O)c2nc3ccccc3s2)sc2c1CCC2	28.2µM*
37	O=C(c1cc2ccccc2oc1=O)N1CCSC1c1ccco1 (centres undefined)	-18.7%
38	COC(=O)c1ccsc1NC(=O)C1COc2ccccc2O1 (centres undefined)	-10.2%
39	O=C1NC2(CCCc3ccccc32)C(=O)N1Cc1nnc(-c2ccccc2Br)o1 (centres undefined)	-27.6%
40	CN(CC(=O)Nc1ccc(C(N)=O)cc1)CC(=O)Nc1ccccc1Cl	-4.6%
41	CC1(C)Oc2ccc(C(=O)N3CCOCC3)cc2N(CC(=O)Nc2ccccc2)C1=O	-2.6%
42	Cc1ccccc1Nc1nc2ccccc2n1C(C)C	-6.3%
43	CC(C)(C)SCCNC(=O)CSCc1ccc([N+](=O)[O-])cc1	-17.2%
44	O=C(Cc1cccs1)NCc1ccncc1	-13.7%
45	CCOC(=O)C(C)c1ccc2cc(OC)ccc2c1 (centres undefined)	-9.6%
46	COc1cccc(OC)c1OCCCOc1c(OC)cccc1OC	-4.9%
47	Cc1cc(C(=O)COC(=O)CNS(=O)(=O)c2ccc3ccccc3c2)c(C)n1-c1ccccc1	-25.6%
48	CCCCCCCC/C=C\CCCCCCCC(=O)N(CCO)CCO	-8.4%
49	COc1ccc2[nH]c3nc(SCc4nnc(-c5ccccc5)o4)nnc3c2c1	-17.2%
50	NC(=O)CSc1nnc(-c2ccc(S(=O)(=O)N3CCCC3)cc2)n1Cc1ccco1	-9.0%

(next part)
#	structure	HPGD inh
51	O=[N+]([O-])c1ccc(/C=N/NC(=S)Nc2ccccc2C(F)(F)F)o1	-20.5%
52	O=C(CN1c2ccccc2Sc2ccccc21)NNC(=S)Nc1ccc(Cl)cc1Cl	-8.6%
53	Cc1cc(S(=O)(=O)N2CCN(Cc3ccc4c(c3)OCO4)CC2)cc(C)c1N1CCCC1=O	2.4%
54	COC(=O)CSc1nc(N)c(NC(=O)c2ccc(OC)c(OC)c2)c(=O)[nH]1	-14.5%
55	Cc1ccccc1NC(=S)N(C)CCc1ccccn1	-2.3%
56	Nc1cnc(Br)cc1Br	-12.3%
57	CCOC(=O)N1CCN(C(=O)c2nn(-c3cc(OC)cc(OC)c3)c(=O)c3ccccc23)CC1	-5.5%
58	COc1cccc(-n2c(SCC(N)=O)nnc2-c2c[nH]c3ccccc23)c1	-6.1%
59	CCCC(=O)OCCNc1cc(SCCC(=O)OC)c2nonc2c1[N+](=O)[O-]	28.2µM*
60	Cc1nc2nc(-c3ccccc3)[nH]n2c(=O)c1C	-21.3%
61	Nc1nc(SCC(=O)Nc2ccccc2Sc2ccccc2)n[nH]1	-17.1%
62	CCOC(=O)C1=C(CSc2nc(CC)c(C)cc2C#N)OC(N)=C(C#N)C1c1ccccc1 (centres undefined)	-21.8%
63	Cc1cc(C)c(NC(=O)CSc2nnc(-c3ccco3)n2N)c(C)c1	-1.8%
64	O=C(c1ccco1)N1CCN(S(=O)(=O)c2ccc(S(=O)(=O)NC3CC3)cc2)CC1	-6.7%
65	COc1ccc(C2=C/C(=C\c3cccc(OC(C)=O)c3)C(=O)O2)cc1	-19.9%
66	CCCOC(=O)c1ccc(Cl)c(NC(=O)c2ccc(-c3ccccc3)cc2)c1	-15.2%
67	Cc1cc(C(=O)CSc2nn(-c3ccccc3)c(=S)s2)c(C)n1Cc1ccco1	-11.0%
68	O=C(N1CCN(c2ccccc2)CC1)C(F)(F)C(F)(F)F	-7.6%
69	CC1(C(=O)NC23CC4CC(CC(C4)C2)C3)CC1(Cl)Cl (centres undefined)	-3.7%
70	CCOn1c(=O)c(C)[n+]([O-])c2ccccc21	-7.2%
71	CCOc1ccc(Cn2c(C)nc([N+](=O)[O-])c2SCC(O)CCl)cc1[N+](=O)[O-] (centres undefined)	-5.2%
72	C[C@@H](NC(=O)/C(C#N)=C/c1ccc(O)c(O)c1)c1ccccc1	-27.2%&-15.6%
73	COc1ccc(C2=CC(c3c(C)nn(-c4ccccc4)c3Cl)n3nnnc3N2)cc1OC (centres undefined)	-15.3%
74	CCn1c(/C(C#N)=C(\O)CCc2ccccc2)nc2ccccc21	?
75	CCn1c(N2CCN(CC(=O)c3c(C)n(C)c4ccccc34)CC2)nc2c1c(=O)[nH]c(=O)n2C	-0.1%
76	Cc1ccc(N/N=C(\C#N)C(=N)N2CCOCC2)cc1	-8.0%
77	N#CC1=C(SCc2ccccc2Cl)NC(=O)C(C(N)=O)C1 (centres undefined)	-9.2%
78	CCCCn1c(SCC2CCCCO2)nc2cc(S(N)(=O)=O)ccc21 (centres undefined)	-6.9%
79	O=C1C2C3C=CC(C2C(=O)N1CN1CCOCC1)C1C2C(=O)N(CN4CCOCC4)C(=O)C2C31 (centres undefined)	-4.9%
80	Cc1c(NC(=O)CSc2ccc3c(c2)OCCO3)c(=O)n(-c2ccccc2)n1C	-12.4%
81	CSCCC(NC(=O)c1ccccc1)C(=O)Nc1ccc(C)cc1 (centres undefined)	-8.5%
82	O=C(CCCn1cnc([N+](=O)[O-])n1)Nc1cccc(Cl)c1Cl	-15.8%
83	c1csc(C(c2nnnn2C2CCCCC2)N2CCCC3(CCCCC3)C2)c1 (centres undefined)	-12.8%
84	COc1ccc(C2=NN(C(=O)CSc3nc4ccccc4s3)C(c3ccc(OC)cc3)C2)cc1 (centres undefined)	-16.5%
85	Cc1ccc(C(=O)c2ccccc2C(=O)O)c(O)c1	-17.9%
86	Cc1cc(C)c(C#N)c(SCC(=O)OC2CCCCC2)n1	15.8µM*
87	CCOC(=O)/C(C(C)=O)=C1/OC(=O)c2ccccc21	-8.0%
88	COC(=O)[C@@]1(Cc2ccc(F)cc2)[C@H]2c3cc(C(=O)N4CCCC4)n(CCc4ccccn4)c3C[C@H]2CN1C(=O)c1ccccc1	1.4%&-9.2%
89	CCCCCn1c(N2CCC(C(N)=O)CC2)nc2c1c(=O)[nH]c(=O)n2C	-2.3%
90	COc1cccc(NC(=O)C2CCCN(S(=O)(=O)c3cccc4nsnc34)C2)c1 (centres undefined)	-10.1%
91	COc1ccccc1NS(=O)(=O)c1cc(C)ccc1C	-10.8%
92	CCOc1ccccc1NC(=O)CCN1CCN(S(=O)(=O)c2ccc(Br)cc2)CC1	-14.0%
93	COc1cc(C2C(C(=O)c3cccs3)=C(O)C(=O)N2Cc2ccco2)cc(OC)c1OC (centres undefined)	-9.8%
94	COc1ccc(C(=O)NNC2CC(=O)N(Cc3ccc(Cl)cc3)C2=O)cc1OC (centres undefined)	1.6%
95	CCc1c(C)nc2ncnn2c1N1CCC(C(=O)Nc2ccccc2)CC1	-17.5%
96	CCCC(=O)Nc1ccc(Br)c(Cl)c1	?
97	Cc1nc2ccc(Cl)cc2c(-c2ccccc2F)c1CC(=O)O	-15.2%
98	C=CCN(c1ccc(C(N)=O)cc1)S(C)(=O)=O	-5.0%
99	Cn1c(Cn2c(=O)sc3ccccc32)nnc1SCC(N)=O	-4.2%
100	C1=C(c2ccccc2)Nc2nnnn2C1	?

A second format for three compounds above.
(98) C=CCN(c1ccc(C(N)=O)cc1)S(C)(=O)=O
  HPGD inh = -5.0%

(99) Cn1c(Cn2c(=O)sc3ccccc32)nnc1SCC(N)=O
  HPGD inh = -4.2%

(84) COc1ccc(C2=NN(C(=O)CSc3nc4ccccc4s3)C(c3ccc(OC)cc3)C2)cc1 (centres undefined)
  HPGD inh = -16.5%

Next entries follow.
#	structure	HPGD inh
101	CC(=O)c1ccc2c(c1)c1ccccc1n2CC(C)C	?
102	Fc1ccc(CNn2cnnc2SCc2ccc(F)cc2)cc1	-0.6%
103	O=C(Nc1cccc(Oc2ccc3c(c2)C(=O)NC3=O)c1)c1cccs1	14.1µM*
104	CN(C)CCCN1C(=O)C(=O)/C(=C(/O)c2ccc(OCc3ccccc3)cc2)C1c1cccnc1 (centres undefined)	-6.8%
105	O=C(NC1=NCCS1)C1CC(=O)N(c2ccc(F)cc2)C1 (centres undefined)	-1.7%
106	O=C(N/N=C/c1ccccc1OCc1ccccc1)c1cccs1	-23.9%
107	Cc1nc(NC(=O)CSc2ccccc2N)sc1C	-18.8%
108	CCOc1ccc(Nc2cc(C)nc(-n3nc(C)cc3C)n2)cc1	-8.4%
109	COc1cccc(OCc2ccc(C(=O)NCC3CCCO3)cc2)c1 (centres undefined)	10µM*
110	Cn1c(SCC(=O)N2CCc3ccccc32)nnc1-c1ccc(S(=O)(=O)N2CCCC2)cc1	?
111	O=C(c1ccc2nc3ccc(Cl)cc3c(=O)n2c1)N1CCOCC1	?
112	O=C(NCc1ccc2c(c1)OCO2)c1ccc(COc2cccc(Cl)c2)o1	-17.4%
113	COc1ccc(NC(=O)c2cc3c([nH]c4ccccc43)c(C)n2)cc1	-25.6%
114	CCCC(=O)N(c1ccc2oc(C)c(C(C)=O)c2c1)S(=O)(=O)c1ccc(C)c([N+](=O)[O-])c1	-29.6%
115	CC1=C(C(=O)Nc2ccc(C)cc2C)C(c2ccc(C)o2)NC(=S)N1 (centres undefined)	-3.2%
116	CC(Sc1nc(NCc2ccccc2)nc(N(C)C)n1)C(=O)Nc1ccccc1 (centres undefined)	-18.2%
117	COc1ccc(-c2nc(-c3ccc(Br)cc3)no2)c(OC)c1	-20.4%
118	CCN1CCN(CC(O)COc2ccc3c(c2)CCC3)CC1 (centres undefined)	-6.1%
119	O=c1ccn(CCOc2ccc(Cl)cc2)c(=O)[nH]1	-16.9%
120	CCCC(=O)N1CCN(c2ccc(C(=O)c3ccc(OC)c(Br)c3)cc2F)CC1	-10.5%
121	COc1ccccc1CNC(=O)c1oc2ccc(S(=O)(=O)N3CCCC3)cc2c1C	?
122	COC(=O)c1[nH]c2ccc(F)cc2c1NC(=O)CCN1CC(C)OC(C)C1 (centres undefined)	?
123	O=C(Nc1ccc(Cl)c(Cl)c1)Nc1ccccc1NS(=O)(=O)c1cccs1	-4.5%
124	N#Cc1ccccc1OCCOCCNC1CCCC1	5.6%
125	CCN(CC)c1ccc(C(=O)O)cc1	-6.1%
126	CN(C)C(=O)c1ccc(-c2nc(Nc3ccncc3)c3ccccc3n2)cc1	0.159µM*

Assay outcomes from PubChem.
